# Screening data (PubChem)
# Rango-impB inh = prevents formation of the Rango-importin beta complex. Q14974. Rango CFP/YFP FRET sensor + importin beta, 45 min. Potency, µM (top dose mostly 92.2 µM), without a hit: at the top dose inhibition of complex formation. 340,000 compounds, 0.031% hits. AID 540263; active = rising FRET ratio curve, often small or poorly fitted; inconclusive = mostly compound fluorescence or quenching in the first reads; inactive = flat curves in all reads;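 also: potency is read from the fitted curve at half-maximal effect; 0% = DMSO wells and 100% = buffer wells lacking importin beta; nearly all actives have a fitted effect of over 15% in size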
#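 FRET biosensor Rango (snurportin 1 IBB between N-terminal EYFP and C-terminal Cerulean), 50 nM in PBS/1 mM DTT/0.02% Tween-20/0.1% BSA, preincubated 5 min RT with compound; 0.125 microM importin beta added, 45 min RT, CFP/YFP FRET ratio read.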
# GLA inh pH 4.5 = blocks human alpha-galactosidase A at pH 4.5. AID 1467. activity change, negative = inhibition, % at 105 µM. purified enzyme, 4-MU-alpha-Gal fluorescence, pH 4.5. 230,000 tested, under 10 active; inconclusive = small, poorly fitted or top-dose-only inhibition, or a rising curve; inactive = flat fitted curve, though single readings scatter; no compound was filed as active;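 also: 0% = full activity with enzyme and -100% = basal without enzyme; dose as in the result columns while the protocol names 77 µM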
# Target sequence (P06280 whole entry, looked up): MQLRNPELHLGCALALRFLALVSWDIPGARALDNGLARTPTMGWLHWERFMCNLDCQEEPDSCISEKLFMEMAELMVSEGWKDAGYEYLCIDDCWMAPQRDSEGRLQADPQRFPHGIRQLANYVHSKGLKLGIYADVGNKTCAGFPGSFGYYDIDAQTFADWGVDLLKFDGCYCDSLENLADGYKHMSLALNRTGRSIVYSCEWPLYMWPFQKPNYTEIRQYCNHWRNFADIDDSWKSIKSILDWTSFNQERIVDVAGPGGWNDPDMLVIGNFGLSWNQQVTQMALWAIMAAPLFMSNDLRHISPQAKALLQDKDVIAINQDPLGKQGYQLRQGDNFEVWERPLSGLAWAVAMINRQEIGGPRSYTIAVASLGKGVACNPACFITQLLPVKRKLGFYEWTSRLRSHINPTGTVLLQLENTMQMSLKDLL
# Rango dissoc inh = inhibition of RanGTP-driven Rango-importin beta dissociation. Biochemical FRET Rango-importin beta, RanGTP-induced dissociation. Potency, µM (top dose mostly 46.1 µM), for inactives: top-dose activity change, negative = inhibition. 340,000 compounds, 0.071% hits; active means falling FRET ratio curve, often poorly fitted, with flat reads before Ran was added; inconclusive means other falling curves, or compound fluorescence or quenching; inactive means flat or rising ratio curve;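 also: potency is read from the fitted curve at half-maximal effect; % of control where 0% means no effect; nearly all actives have a fitted effect of over 45% in size; -100% = wells without RanGTP and RCC1; the record marks most hits as doubtful in a second field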
#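 FRET read at 45 min, room temperature: inhibitors block the CFP/YFP signal rise when RanGTP (0.6 uM Ran, 2 mM GTP, 0.2 uM RCC1) frees Rango (0.1 uM) from importin beta (0.25 uM). Pre-read after 5 min compound exposure flags interference.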
# miR-21 FLuc = raises the signal of a miR-21 reporter | HeLa miR-21 FLuc reporter, luciferase, 48 h | Potency, µM (doses to about 38.3 µM), for inactives: top-dose reporter change, positive = more light | 340,000 tested, under 10 active | AID 2288; active = well fitted rising curve with a large enough effect; inconclusive = small, poorly fitted or top-dose-only effect; inactive = no such curve, though single readings can be large or run the other way;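 also: % of control where 0% means no effect; miR-21 action dims this reporter so a rising signal means less miR-21 action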
#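 Using DMEM plus 10% FBS, HeLa miR-21-FLuc cells are incubated with test compounds (final up to about 40uM) for 48 hours; firefly luciferase signal is then imaged following reagent-mediated lysis.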
# The depositor's hits bear a star; ? = inconclusive; . = no result given; & = joins results of further samples; [ ] = remark or other dose.
nr	Molecule	Rango-impB inh	GLA inh pH 4.5	Rango dissoc inh	miR-21 FLuc
1	COc1ccc(C(=O)NCC(=O)N2CCC(Cc3ccccc3)CC2)cc1OC	1.9%	.	-8%	.
2	Cc1ccc(C=C2C(=O)c3ccccc3C2=O)s1	-0.8%	-1	2%	-17%
3	O=C(CSc1ncccn1)NC(=O)NCc1ccccc1	-0.9%	0	8%	-2%
4	COc1ccc(CCN(C)C(=O)c2ccc(COc3ccccc3)o2)cc1OC	-0.4%	.	-5%	-6%
5	Cc1cc(C(=O)COC(=O)c2ccncc2)c(C)n1CCc1ccc(F)cc1	?	3	15%	-7%
6	Cc1cc(C)c2nc(N3C(=O)C(O)=C(C(=O)c4ccco4)C3c3ccco3)sc2c1 (configuration not stated)	?	.	?	-43%
7	CC(C)OC(=O)CSc1nnc(-c2cnccn2)n1C	8.6%	-3	-14%	29%
8	COc1cccc(C(=O)OCC(=O)c2c(N)n(C)c(=O)n(C)c2=O)c1	-0.7%	.	10%	.
9	COc1ccccc1N1CCN(C(CNS(C)(=O)=O)c2cccnc2)CC1 (configuration not stated)	1.2%	7	-6%	-3%
10	COc1ccc(N(CC(=O)NCCC2=CCCCC2)S(=O)(=O)c2ccccc2)cc1OC	-3.0%	-17	4%	-9%
11	CCOC(=O)C(NC(C)=O)C(OC(C)=O)c1cccc(N(CCO)CCO)c1 (configuration not stated)	-4.5%	10	2%	1%
12	O=C1CC(Nc2ccc3ccccc3c2)C(=O)N1Cc1ccccc1 (configuration not stated)	-0.7%	-1	-6%	11%
13	CCC(Oc1ccccc1)C(=O)Nc1nnc(C)s1 (configuration not stated)	0.6%	0	-10%	-2%
14	CC(C)(C)c1cc(=O)n2c(C#N)c(C#N)nc2[nH]1	2.7%	4	13%	0%
15	CCCn1c(=O)[nH]c(=O)c2c1nc(-c1ccc(OC)c(Br)c1)n2CCOC	-2.1%	3	0%	-7%
16	CC(C)c1ccc(NC(=O)COc2ccc(S(=O)(=O)N3CCOCC3)cc2)cc1	0.9%	7	14%	-4%
17	Cc1ccc(C(=O)NC2CC3CCCC(C2)N3C(=S)NCc2ccco2)cc1 (configuration not stated)	?	-5	-12%	-4%
18	CCOC(=O)N1CCN(C(=O)c2ccc(Cn3c(=S)[nH]c4cc(OCC)c(OCC)cc4c3=O)cc2)CC1	0.1%	-3	5%	0%
19	Nc1c2c(=O)[nH]c(O)cc2nn1-c1ccccc1	0.5%	.	-13%	.
20	COc1ccc(N2CCN(C(=O)C3=NNC(=O)CC3)CC2)cc1	-2.8%	1	-4%	-1%
21	COc1ccc(OCC(=O)N/N=C(\C)CC(=O)Nc2cccc([N+](=O)[O-])c2)cc1	-2.9%	13	-2%	1%
22	CC1(C)Cc2nc3sc4c(N(CCO)CCO)ncnc4c3cc2CO1	-11%	1	3%	-34%
23	C=CCn1c(SCC(=O)c2ccc(O)c(O)c2)nnc1-c1ccc(OC)cc1	-3.0%	.	5%	.
24	O=C(Nc1ccc(S(=O)(=O)NCc2ccccc2)cc1)Nc1ccc2c(c1)OCO2	0.9%	-4	3%	-24%
25	COc1ccc(NC(=O)COC(=O)c2ccc(F)cc2F)cc1	-2.9%	-2	13%	1%
26	Cc1ccc(N(CC(=O)NCCSCc2ccco2)S(=O)(=O)c2ccc(F)cc2)cc1	0.3%	4	-6%	10%
27	O=[N+]([O-])c1ccc(N=NNc2ccccc2)cc1	4.2%	-3	-3%	-42%
28	CCn1ccnc1CN(C)Cc1cn(-c2cccc(C)c2)nc1-c1cccc(F)c1	0.9%	.	0%	?
29	Cc1nc(Oc2ccc(Cl)cc2)c2oc3ccccc3c2n1	0.0%	0	9%	-4%
30	Cn1cccc1/C=N/NC(N)=S	-0.8%	-3	2%	-5%
31	Cc1onc(-c2ccccc2)c1C(=O)Nc1nncs1	2.5%	.	2%	-2%
32	Oc1c(C(c2ccco2)N2CCOCC2)sc2ncnn12 (configuration not stated)	0.3%	-2	0%	0%
33	CCNC(=O)c1ccc(C2SCC(=O)N2CCc2ccccc2)cc1 (configuration not stated)	-1.4%	-14	0%	-6%
34	CCOc1ccc(C(=O)Nn2cnnc2)cc1OCC	1.9%	2	?	1%
35	Cc1ccsc1C(=O)N1CCN(c2ncc(C(F)(F)F)cc2Cl)CC1	3.5%	.	1%	.
36	CC(NC(=O)Nc1ccccc1)C(c1ccccc1)N1CCOCC1 (configuration not stated)	0.1%	1	-9%	0%
37	Cc1nn(C)c(Cl)c1CN1CCCC(CO)(Cc2cccc(Cl)c2)C1 (configuration not stated)	-2.4%	-15	-13%	5%
38	CCOc1cc(C)c(Cl)cc1S(=O)(=O)NCCOC	-1.1%	5	-2%	-11%
39	CCCN(CC(=O)Nc1ccccc1C)C(=O)COC(=O)CSc1ccc([N+](=O)[O-])cc1	4.2%	.	-7%	.
40	O=C(NC1CCS(=O)(=O)C1)C1C2CC3CC(C2)CC1C3 (configuration not stated)	-1.2%	-2	2%	1%
41	O=C(O)CNC(=O)c1ccc(NC(=O)/C(=C/c2ccccc2)NC(=O)c2ccccc2Br)cc1	5.0%	.	27%	1%
42	FC(F)(F)c1nnc2ccc(N3CCN(c4ccccc4)CC3)nn12	2.5%	-21	-4%	-11%
43	Cc1ccc(CN2C3CCCC2CC(NC(=O)c2ccc(F)cc2)C3)cc1 (configuration not stated)	-3.8%	.	-2%	-2%
44	CN(c1ccccc1)C1CCCCC1NS(=O)(=O)c1ccc(Cl)cc1 (configuration not stated)	-3.3%	-6	-11%	15%
45	CC(C)(C)N(Cc1ccccc1)C(=O)COC(=O)[C@@H]1CCCN1C(=O)c1cccs1	2.0%	.	8%	.

# Reprinted from the part before: 3 entries, then new ones.
nr	Molecule	Rango-impB inh	GLA inh pH 4.5	Rango dissoc inh	miR-21 FLuc
43	Cc1ccc(CN2C3CCCC2CC(NC(=O)c2ccc(F)cc2)C3)cc1 (configuration not stated)	-3.8%	.	-2%	-2%
44	CN(c1ccccc1)C1CCCCC1NS(=O)(=O)c1ccc(Cl)cc1 (configuration not stated)	-3.3%	-6	-11%	15%
45	CC(C)(C)N(Cc1ccccc1)C(=O)COC(=O)[C@@H]1CCCN1C(=O)c1cccs1	2.0%	.	8%	.
46	CC(C)(C)OC(=O)N1CCC2(CC1)Oc1ccc(F)cc1C(=O)C21CC(c2ccccc2)=NO1 (configuration not stated)	-3.8%	.	9%	.
47	CC(=O)Nc1ccc(C(=O)CSc2nnc3scc(-c4ccccc4)n23)cc1	-5.9%	-9	0%	-5%
48	CCCCCOc1ccc(NC(=O)C2OC3OC(C)(C)OC3C3OC(C)(C)OC23)cc1 (configuration not stated)	?	3	-2%	-1%
49	Cc1ccc2nc(N3CCN(C)CC3)c(C#N)cc2c1	-2.5%	5	-13%	-37%
50	O=C(CN1C(=O)CCC1=O)Nc1nc(-c2ccccn2)cs1	2.7%	-5	2%	1%
51	COCCNC(=O)CSc1nc2ccc(N3CCOCC3)cc2c(=O)n1Cc1ccc(OC)cc1	?	-18	?	-41%
52	Nc1nc(-c2ccccc2)cc(-c2ccccc2)n1	-0.9%	.	4%	-22%
53	Cc1ccc(S(=O)(=O)NC(=O)Nc2ccc(C)cc2C)cc1	-2.4%	.	0%	1%
54	CCC(C)N1CCC(Oc2ccc(C(=O)NCc3ccccn3)cc2)CC1 (configuration not stated)	-0.8%	.	-8%	-11%
55	O=C(CCn1c(=O)[nH]c2ccccc2c1=O)NCCSCc1ccccc1	0.1%	1[21.1 µM]	-6%	-1%
56	Oc1ccccc1N1CCN(c2ncnc3scc(-c4ccc(F)cc4)c23)CC1	-2.2%	.	-2%	21%
57	Cc1cccc(CNC(=O)C2CCC(=O)N(C3CC3)C2)c1 (configuration not stated)	-1.7%	.	1%	-9%
58	COc1ccc(S(=O)(=O)NCc2ccccn2)c(C)c1C	-0.3%	.	0%	0%
59	S=C1NC[C@H](CC2CCCCC2)N1CC1CCCCC1	-4.9%	-5	-15%	0%
60	O=C(C/C(=N/O)c1ccccc1O)C(F)F	4.0%	-16	4%	-5%
61	CC1CCN(c2c(NCC3CCC(C(=O)NC4CCCCCC4)CC3)c(=O)c2=O)CC1 (configuration not stated)	-0.3%	1	-17%	-1%
62	Cc1cccc(C(=O)O/N=C(\N)c2ccc(Cl)cc2)c1	-0.2%	.	6%	-39%
63	COc1ccc(C(=O)c2sc3nc(-c4ccccc4)ccc3c2N)cc1	?	-5	?	-7%
64	CCCOc1ccc(CC2CCC(=O)NC2=O)cc1 (configuration not stated)	-0.6%	3	1%	-15%
65	CCc1ccc([C@@H]2CC=C(C(=O)O)CN2S(=O)(=O)c2ccc(C)cc2)cc1	-3.4%	.	3%	.
66	COCC(=O)N(C)c1nnc(-c2cnc(C)cn2)s1	1.4%	1	-9%	-29%
67	COc1ccc(CN(Cc2ccc(C(=O)O)cc2)C(=S)Nc2ccccc2Cl)cc1OC	-0.5%	-17[21.1 µM]	10%	-7%
68	COc1ccc(Cl)cc1NC(=O)C1CC(c2ccccc2O)=NO1 (configuration not stated)	3.9%	.	1%	2%
69	COc1ccc(OC)c(NC(=O)COC(=O)CCc2nc3ccccc3c(=O)[nH]2)c1	0.2%	.	-8%	.
70	COc1ccccc1NS(=O)(=O)c1cc(NC(=O)c2cccs2)ccc1N1CCOCC1	2.7%	?	4%	0%
71	CCc1nn(CC(=O)NCCc2ccc(OC)cc2OC)c(=O)c2cc3occc3n12	-2.0%	.	0%	-1%&-3%
72	CCOC(=O)c1cc(-c2c(Cl)cccc2Cl)no1	1.9%	-1	-2%	1%
73	Cc1cccc(C(=O)NC(=S)NNC(=O)c2ccc(Cl)cc2)c1	6.5%	-4	-7%	18%
74	C/C(=N\Nc1ccc([N+](=O)[O-])cc1[N+](=O)[O-])C(C)(C)C(C(=O)O)C(=O)O	-4.0%	-13	0%	-1%
75	CC(=O)Nc1ccc(S(=O)(=O)Nc2nc3ccccc3nc2Nc2ccccc2)cc1	-5.3%	-21	6%	-14%
76	Cc1cc(C)c2nc(/N=C(\N)NC(=O)Nc3ccccc3)nc(C)c2c1	1.9%	10	10%	22%
77	COc1ccc(CCNC(=O)Cn2nnc(C(=O)Nc3cccc(C)c3C)c2N)cc1OC	2.3%	.	25%	10%
78	CC1CCCCC1NC(=O)C1CCN(S(=O)(=O)c2ccc3c(c2)CCC(=O)N3)CC1 (configuration not stated)	?	2	9%	0%
79	COc1cc(NC(=S)N(C)CCC#N)c(OC)cc1Cl	-2.4%	-4	13%	-4%
80	O=C(NCN1CCCCC1)c1cnccn1	0.4%	1	2%	3%
81	COc1cc(Br)cc(CN2CCN(C=O)CC2)c1O	0.8%	-4	26%	-8%
82	O/N=C/c1ccc2cccc(O)c2n1	-5.8%	-1	-12%	-18%
83	CCCOc1ccc(C(=O)ON=C2CCN(C)CC2)cc1	-1.0%	0	2%	0%
84	COC(=O)c1cc(-c2cccc(OC)c2)c2c(=O)[nH]c(=O)n(C)c2n1	-0.6%	.	-5%	-10%
85	O=C(Nc1ccc(S(=O)(=O)N2CCCCC2)cc1)c1ccc(Cl)nc1	-3.5%	.	19%	.
86	COc1ccc(OC)c(-c2cc(C(=O)NC3CCCC3)c3ccccc3n2)c1	-2.0%	.	47%	4%
87	COc1ccc(CNC(=O)CN(Cc2ccco2)C(=O)CNS(=O)(=O)c2ccc(C)cc2)cc1	-1.9%	.	8%	-1%
88	CCCc1nc2c([nH]1)C(c1cccnc1)C(C#N)=C(N)O2 (configuration not stated)	2.3%	5	-6%	2%
89	Cc1ccc2c(c1)C(=O)C(=O)N2CC(=O)Nc1ccc(N2CCOCC2)cc1	?	5	6%	-1%
90	O=C1Cc2ccccc2C(=O)N1c1ccc(F)cc1Cl	?	.	-8%	5%
91	CCOC(=O)CN(Cc1ccc(OC)c(OC)c1)S(=O)(=O)c1ccc(OC)cc1	-0.8%	5	5%	-4%

# These rows are one share of the data, so the mix of outcomes need not match the whole.
